From PubChem
Mtb H37Rv: Confirmatory growth inhibition assay against Mycobacterium tuberculosis H37Rv, potency (AID 1949); most inactive calls were filed without a number and no value below 0 was filed; one-dose inhibition, % at 10 µg/mL; IC50 in µg/mL for titrated hits; actives 1.6% (n = 100,000);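 active = confirmed in a dose series; inconclusive = about 50% or more but not retested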;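 also: bacteria grown 7 days with compound before Alamar blue readout; 0% = untreated bacteria and 100% = reference antibiotic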
* = called active by the depositor; i = inactive; u = inconclusive. Some of the compounds tested. The share of hits here may be higher or lower than overall.

The first 13 records, to show the layout:
SMILES	Mtb H37Rv
CCOc1cc(C=O)cc(I)c1OC(=O)c1cccs1	0%
O=C(Nc1cccc(F)c1)N1CCN(c2ccccn2)CC1	i
CC(=O)c1ccc(NC(=O)COc2cc(Cl)c(Cl)cc2Cl)cc1	i
CNC(=O)CN(c1ccccc1)S(=O)(=O)c1ccc(OC)cc1	i
COc1ccccc1NC(=O)Cn1nnc(-c2cccs2)n1	3%
Cc1cc(C)c(S(=O)(=O)N2CCC(C(=O)N3CCN(c4cccc(Cl)c4)CC3)CC2)c(C)c1	7%
Cc1sc2nc(SCC(=O)Nc3c(F)cc(F)cc3Br)n(C)c(=O)c2c1C	i
CN(c1ccccc1C(=O)Nc1ccccc1C(=O)N1CCOCC1)S(C)(=O)=O	i
N/C(=N\OC(=O)CCC1CCCCC1)c1ccccn1	i
CCC(CC)C(=O)Nc1cccc(C(=O)NC(C)(C)C)c1	i
O=C(NC(=S)NC12CC3CC(CC(C3)C1)C2)c1cc(Cl)ccc1Cl	i
Cc1nnc(SCC(=O)Nc2ccc(Cl)cc2)n1-c1ccccc1	i
CCOC(=O)C1=C(c2ccccc2)NC(SCC(=O)Nc2cccc(OC)c2)=C(C#N)C1c1ccco1 (stereo not given)	i

This part in full, from the start:
SMILES	Mtb H37Rv
CCOc1cc(C=O)cc(I)c1OC(=O)c1cccs1	0%
O=C(Nc1cccc(F)c1)N1CCN(c2ccccn2)CC1	i
CC(=O)c1ccc(NC(=O)COc2cc(Cl)c(Cl)cc2Cl)cc1	i
CNC(=O)CN(c1ccccc1)S(=O)(=O)c1ccc(OC)cc1	i
COc1ccccc1NC(=O)Cn1nnc(-c2cccs2)n1	3%
Cc1cc(C)c(S(=O)(=O)N2CCC(C(=O)N3CCN(c4cccc(Cl)c4)CC3)CC2)c(C)c1	7%
Cc1sc2nc(SCC(=O)Nc3c(F)cc(F)cc3Br)n(C)c(=O)c2c1C	i
CN(c1ccccc1C(=O)Nc1ccccc1C(=O)N1CCOCC1)S(C)(=O)=O	i
N/C(=N\OC(=O)CCC1CCCCC1)c1ccccn1	i
CCC(CC)C(=O)Nc1cccc(C(=O)NC(C)(C)C)c1	i
O=C(NC(=S)NC12CC3CC(CC(C3)C1)C2)c1cc(Cl)ccc1Cl	i
Cc1nnc(SCC(=O)Nc2ccc(Cl)cc2)n1-c1ccccc1	i
CCOC(=O)C1=C(c2ccccc2)NC(SCC(=O)Nc2cccc(OC)c2)=C(C#N)C1c1ccco1 (stereo not given)	i
CCC(C)NC(=S)NNC(=O)c1ccc(C(C)(C)C)cc1 (stereo not given)	22%
O=C(N/C(=C/c1ccccc1)c1nc2ccccc2[nH]1)c1ccccc1	i
COCCn1cc(C(=S)N2CCCCC2)c2ccccc21	i
CCOC(=O)C1CCN(C(=O)Cc2ccc(-c3ccccc3)cc2)CC1	u
O=C(Nc1nc(-c2ccc(Cl)cc2)cs1)c1cc(Cl)ccc1Cl	6%
CCOc1ccc(-c2cc(C(=O)N3CCN(c4ncccn4)CC3)c3ccccc3n2)cc1	i
COc1ccc(NC(=S)NCC(c2ccccc2)c2ccccc2)cc1	i
CC(NC(=O)C(=O)NCC1CCCO1)c1ccccc1 (stereo not given)	i
Cc1cc(C(=O)Nc2ccccc2-c2ccccc2)cs1	i
Cc1cc(Cl)cc(Br)c1OCCCN1C(=O)NC(C)(C)C1=O	0%
Fc1ccccc1N1CCN(C2CCN(C3CCC(c4ccccc4)CC3)CC2)CC1 (stereo not given)	11%
CNCc1ccccc1OCC(=O)Nc1ccccc1OC	i
O=C(CSc1ncccn1)Nc1ccc(Oc2ccc(Cl)cc2)cc1	1%
CC1CC(C)(C)Cc2c1sc1nc[nH]c(=O)c21 (stereo not given)	i
O=C(Oc1ccc(Cl)cc1Br)c1ccc([N+](=O)[O-])cc1	5%
O=S(=O)(Cc1ccccc1)N1CCN(Cc2ccccc2F)CC1	i
C=Cc1ccc(COc2ccc3c(C)c(CCC(=O)OCC)c(=O)oc3c2C)cc1	5%
CN(C)c1ccc(NC(=S)Nc2ccc(F)cc2)cc1	10%
Cc1nc(NC(=O)C23CC4CC(CC(C4)C2)C3)sc1C(=O)N(C)C	i
COCCCNCCOc1ccc(C(C)C)c(C)c1	i
CCOC(=O)c1c(NC(=O)c2c(-c3ccccc3Cl)noc2C)sc2c1CCC2	i
CC(C)CNC(=O)c1ccccc1NC(=O)c1cccc(Br)c1	i
CCn1c(CC(=O)Nc2ccc(C)cc2)nnc1SCC(=O)N1CCN(c2ccccc2)CC1	i
CCOc1ccc(NC(=O)c2c(NC(=O)COc3ccccc3)sc3c2CCC3)cc1	i
O=C(Nc1ccccc1C(=O)NC1CCCCC1)c1ccccc1I	i
Cc1c(C)c2cc(Cl)c(OCC(N)=O)cc2oc1=O	i
COc1ccccc1C(=O)n1nc(-c2ccccc2)nc1SC	i
NS(=O)(=O)c1ccc(NC(=O)CSc2nc3ccccc3c(=O)n2-c2ccccc2)cc1	i
COc1ccc(OC)c(NC(=O)CSc2nc3ccccc3n2C2CCCCC2)c1	2%
O=C(C1CCN(CC2CCCCC2)CC1)N1CCN(c2ccccc2F)CC1	i
N#C/C(=C\c1ccccc1OCc1cccc(F)c1)S(=O)(=O)c1ccccc1	i
O=[N+]([O-])c1cccc(COc2cccc(-c3cnc4ccccc4n3)c2)c1	i
CC(Oc1ccc(Cl)cc1Cl)C(=O)Nc1ccc(-c2nc3ccccc3o2)cc1 (stereo not given)	i
COc1ccc(Nc2nnc(-c3ccccc3)c3ccccc23)cc1	2%
CCN(C(=O)Cc1ccc(OC)cc1)c1ccccc1	i
CCOC(=O)c1c(NC(=O)Cc2cccs2)sc(C)c1C	1%
COC(=O)C1=C(C)NC(=O)NC1c1cc(Cl)ccc1OC (stereo not given)	0%
COc1ccc(/C=C2/NC(=O)/C(=C/c3ccc(OC)cc3)C2=O)cc1	35%
S=c1[nH]nc(-c2cccnc2)n1-c1ccc(Br)cc1	i
O=C(NCCC1=CCCCC1)c1cc(-c2cccnc2)nc2ccc(Cl)cc12	i
CN(Cc1ccccc1)C(=O)CN(Cc1ccccc1)S(=O)(=O)c1ccc(Br)cc1	i
CCN(CC)C(=O)c1sc(NC(=S)Nc2c(C)n(C)n(-c3ccccc3)c2=O)c(C(=O)OC)c1C	i
CCOc1ccc(CC(=O)Nc2ccc(Br)cc2)cc1OCC	i
Cc1nc(=O)c(-c2ccccc2)c(C)n1CC1CCCO1 (stereo not given)	i
O=C(c1ccco1)N1CCN(S(=O)(=O)N2CCOCC2)CC1	i
COc1ccccc1NS(=O)(=O)c1ccc(I)cc1	i
CCCCOc1ccc(C(=O)Nc2ccccc2NC(C)=O)cc1	i

Going on with the list.
SMILES	Mtb H37Rv
Cc1ccc(CNCc2cccnc2)s1	i
Cc1ccc(NC(=O)NNC(=O)c2cccs2)cc1	i
COc1ccc(-c2n[nH]c(C(F)(F)F)c2-c2cnn(-c3ccccc3)c2)c(O)c1OC	i
O=C(COc1ccc(Br)cc1)Nc1ccccc1F	30µg/mL*
COCCNC(=O)c1ccccc1-c1ccccc1C(=O)O	i
CS(=O)(=O)N(CC(=O)Nc1cccnc1)c1cccc(F)c1	i
COc1ccc(-c2nnc(SCC(=O)Nc3ccc(OC)cc3[N+](=O)[O-])n2C)cc1	i
COc1ccc(CNC(=O)Nc2ccc(OC)cc2)cc1	11%
CCC(Sc1nccn1C)C(=O)Nc1cccc2ccccc12 (stereo not given)	i
CCc1ccc(C(=O)N2CCN(c3ccc([N+](=O)[O-])c(-n4nc(C)c5ccccc5c4=O)c3)CC2)cc1	3%
COc1ccc(CNC(=O)c2c(N)nc3sc4c(c3c2C(F)(F)F)CCC4)cc1	0.31µg/mL*
CCc1ccc(/C=C/c2nc3ccccc3c(=O)[nH]2)cc1	i
O=C(CCn1nc(-c2ccc(Cl)cc2)c2ccccc2c1=O)N1CCOCC1	i
O=C(NCCSc1ccc(Cl)cc1)Nc1ccccc1	i
Cc1cc(Br)ccc1OCCOCCN1CCN(C)CC1	3%
COC(=O)c1ccc(NC(=O)CSc2ccccn2)cc1	8%
COCCCNC(=S)NNC(=O)c1ccccn1	6%
COc1c(S(=O)(=O)N2CCN(c3ccc(F)cc3)CC2)ccc(Cl)c1Cl	0%
COc1ccc(NC(=S)Nc2ccccc2F)c(OC)c1	i
O=[N+]([O-])c1ccc(N2CCN(S(=O)(=O)c3ccc(F)cc3)CC2)cc1NCc1ccccc1	1%
O=C(Nc1cccc(OC(=O)N(c2ccccc2)c2ccccc2)c1)N1CCCCC1	8%
CCOC(=O)c1c(NC(=O)CSc2nc(C)ccc2C#N)sc2c1CCC2	1%
CC(C)CNS(=O)(=O)c1ccc(CCC(=O)Nc2ccc(Br)cc2)cc1	i
COc1cc(Br)ccc1NC(=O)c1ccc([N+](=O)[O-])cc1	i
CC(=O)C1=C(C)NC(=O)NC1c1ccco1 (stereo not given)	i
Cc1cc(C)cc(NC(=O)c2ccc(NS(=O)(=O)c3cccc4cccnc34)cc2)c1	i
CCC(C)NCCOCCOc1ccc(C(C)(C)C)cc1 (stereo not given)	i
O=C(CCc1ccc(S(=O)(=O)NCc2ccccc2)cc1)NCC1CCCO1 (stereo not given)	i
COCCNCCOc1cc(C(C)C)ccc1C	i
O=C(CSc1ccccn1)N1CCN(c2cccc(Cl)c2)CC1	i
Cc1occc1C(=O)Nc1ccc([N+](=O)[O-])cn1	i
Cc1ccc(S(=O)(=O)N2CCN(C3CCCC3)CC2)cc1	i
CCS(=O)(=O)CCSc1nc(-c2cccs2)cc(-c2ccccc2)c1C#N	i
CCOc1cc(C(=S)N2CCCC2)ccc1OCC(=O)Nc1c(C)cc(C)cc1C	i
CCOC(=O)Cc1nc(-c2cc3ccccc3oc2=O)cs1	i
COc1ccc(-c2noc(-c3ccc(C)cc3)n2)cc1OC	i
COc1ccc(NC(=S)Nc2ccc(C)c(Cl)c2)cc1OC	i
O=C(C1CCCN(Cc2cccs2)C1)N1CCCCCC1 (stereo not given)	i
COc1c(-c2ccccc2Cl)oc2ccccc2c1=O	i
CN1CCN(c2nc3ccccn3c(=O)c2C=O)CC1	i
O=C(CSc1nc(O)c(Cc2ccccc2)c(=O)[nH]1)Nc1ccc([N+](=O)[O-])cc1	i
COC(=O)c1ccc(Cl)c(NC(=O)CSc2nc3ccccc3s2)c1	i
O=C(c1ccccc1)c1cc2ccccc2o1	i
COc1ccc(S(=O)(=O)NCC2CCCO2)cc1-c1nnc2c3ccccc3c(C)nn12 (stereo not given)	i
CCN(CC)S(=O)(=O)c1ccc(C)c(N(C)S(=O)(=O)c2ccc(C)cc2)c1C	3%
C=C(C)c1cccc(C(C)(C)NC(=O)NC(C)c2cccs2)c1 (stereo not given)	2%
Cc1nnc(NCc2ccco2)[nH]c1=O	i
COc1ccccc1CNC(=O)COc1cc(Cl)c(Cl)cc1Cl	i
COc1ccc(CC2C(=O)N(C)C(=O)N(C)C2=O)cc1	i
Cc1ccccc1C1CC(=O)NC(SCC(=O)NC2CCCCC2)=C1C#N (stereo not given)	i
CCOc1ccccc1NC(=O)c1ccoc1C	i
CC1(C)CC(=O)C2=C(C1)N(Cc1cccnc1)C(=O)C2(NC(=O)c1cccs1)C(F)(F)F (stereo not given)	i
CCOc1ccc(NC(=O)CC2S/C(=N\N=C(/C)C(C)(C)C)NC2=O)cc1 (stereo not given)	i
CCc1ccccc1N(CC(=O)Nc1ccc(I)cc1C)S(C)(=O)=O	i
Cc1ccc(C(=O)CSc2nnnn2-c2ccccc2)cc1C	i
COc1ccc(C)cc1N(CC(=O)N1CCN(Cc2ccccc2)CC1)S(C)(=O)=O	i
CC1CCN(C(=O)CSc2nc3ccccc3s2)CC1	i
CCCCC12CN(C(=O)CC)CC(C)(CN(C(=O)CC)C1)C2=O	i
COc1cccc(/C=C2\SC(=S)N(CCCC(=O)N3CCN(c4ccccc4)CC3)C2=O)c1	i
CN1CCN(CC(=O)Nc2ccc([N+](=O)[O-])cc2)CC1	i

The list continues.
SMILES	Mtb H37Rv
COc1ccc(NC(=O)CN(c2ccccc2Br)S(C)(=O)=O)cc1Cl	i
O=C(NC1(C(F)(F)F)N=C(c2ccccc2)N(Cc2ccccc2)C1=O)c1cccs1 (stereo not given)	i
COC(=O)C1=CN(Cc2ccc(Cl)cc2)C=C(C(=O)OC)C1c1cccc(O)c1	0%
CS(=O)(=O)N(CC(=O)Nc1ccc(OCc2ccccc2)cc1)c1cccc2ccccc12	i
CCc1cc(Br)ccc1NC(=S)Nc1cc(Cl)ccc1OC	i
COc1cc(C)c(NC(=O)CSc2nnc(C)n2-c2ccccc2)cc1C	i
COc1ccc(-c2cc(C(F)F)n3ncc(C(=O)Nc4ccccc4SC)c3n2)cc1	2%
Cc1nnc(NC(=O)CSc2nnc(CN3CCOCC3)n2-c2ccccc2)s1	i
O=C(NCC1CCCO1)c1ccccc1Oc1ccccc1 (stereo not given)	2%
CNC(=O)CN(Cc1ccc(C)cc1)S(=O)(=O)c1c(C)cc(C)cc1C	1%
Cc1sc2nc(SCc3nc4ccccc4[nH]3)n(-c3ccccc3)c(=O)c2c1C	u
COC(=O)c1ccc(NC(=O)CCSc2ccc(C)cc2)cc1	i
COc1ccc(C(=O)NC(=S)N2CCOCC2)cc1I	2%
Clc1ccc(Cn2cnc3ccccc32)cc1	i
O=C(Cn1cnc2sc(-c3ccccc3)cc2c1=O)Nc1ccc(F)cc1	i
O=C(Nc1sc2c(c1C(=O)NCCc1ccccc1)CCC2)c1sc2ccccc2c1Cl	i
O=C(NCCc1ccccc1)c1ccc(NS(=O)(=O)c2cccc3cccnc23)cc1	i
CCOc1ccc(C2NC(=S)NC(C)=C2C(=O)Nc2ccccc2)cc1OC (stereo not given)	i
Cc1ccccc1CSCC(=O)Nc1ccccc1C(=O)NCc1ccco1	2%
